Assay outcomes (PubChem BioAssay)
GLA inh pH 4.5 = blocks human alpha-galactosidase A at pH 4.5; P06280; purified enzyme, 4-MU-alpha-Gal fluorescence, pH 4.5; activity change, negative = inhibition, % at 105 µM; 230,000 tested, under 10 active; inconclusive = small, poorly fitted or top-dose-only inhibition, or a rising curve; inactive = flat fitted curve, though single readings scatter; no compound was filed as active;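 further: 0% = full activity with enzyme and -100% = basal without enzyme; dose as in the result columns while the protocol names 77 µM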
Rango-impB inh = inhibitors of Rango-importin beta complex formation; Q14974; Rango CFP/YFP FRET sensor + importin beta, 45 min; Potency, µM (series often up to 92.2 µM), for the others: at the highest dose inhibition of complex formation; hit rate 0.031% among 340,000; AID 540263; active = rising FRET ratio curve, often small or poorly fitted; inconclusive = mostly compound fluorescence or quenching in the first reads; inactive = flat curves in all reads;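 further: potency means the concentration at half of the fitted maximal effect; 0% = DMSO wells and 100% = buffer wells lacking importin beta; nearly all actives have a fitted effect of over 15% in size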
Target sequence (Q14974 whole entry, looked up): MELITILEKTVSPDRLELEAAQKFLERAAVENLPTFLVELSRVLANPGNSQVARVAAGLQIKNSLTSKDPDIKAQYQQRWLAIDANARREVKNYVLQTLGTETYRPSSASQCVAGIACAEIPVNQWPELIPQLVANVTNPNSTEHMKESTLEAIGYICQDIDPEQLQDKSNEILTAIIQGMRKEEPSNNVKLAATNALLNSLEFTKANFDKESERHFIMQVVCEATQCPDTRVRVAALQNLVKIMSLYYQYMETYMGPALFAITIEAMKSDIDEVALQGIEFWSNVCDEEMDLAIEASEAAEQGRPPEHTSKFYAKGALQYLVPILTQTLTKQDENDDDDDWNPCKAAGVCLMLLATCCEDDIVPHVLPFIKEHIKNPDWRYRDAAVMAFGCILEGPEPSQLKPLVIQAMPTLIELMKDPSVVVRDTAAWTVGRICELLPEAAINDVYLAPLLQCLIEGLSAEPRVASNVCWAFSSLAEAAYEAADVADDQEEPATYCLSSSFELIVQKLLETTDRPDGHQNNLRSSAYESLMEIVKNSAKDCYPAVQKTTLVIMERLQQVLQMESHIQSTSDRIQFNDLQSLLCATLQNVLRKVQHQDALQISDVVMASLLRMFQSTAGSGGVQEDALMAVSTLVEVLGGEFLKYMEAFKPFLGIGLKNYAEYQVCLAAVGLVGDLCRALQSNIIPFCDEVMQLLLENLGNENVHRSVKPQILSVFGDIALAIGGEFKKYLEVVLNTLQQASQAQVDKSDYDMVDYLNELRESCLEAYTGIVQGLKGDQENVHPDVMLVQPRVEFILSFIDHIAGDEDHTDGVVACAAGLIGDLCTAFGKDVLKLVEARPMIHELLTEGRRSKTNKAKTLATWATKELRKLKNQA
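Inhibition scored from the CFP 486 nm/YFP 530 nm FRET ratio 45 min after adding 0.125 microM importin beta to 50 nM Rango biosensor preincubated 5 min with compound (room temperature, PBS with DTT, Tween-20, BSA). No-importin wells as positive control.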
Rango dissoc inh = inhibition of RanGTP-driven Rango-importin beta dissociation; O95149+P62826; Biochemical FRET Rango-importin beta, RanGTP-induced dissociation; Potency, µM (titrated, usually from 46.1 µM), for inactives: at the highest dose activity change, negative = inhibition; hit rate 0.071% among 340,000; AID 540253; active means falling FRET ratio curve, often poorly fitted, with flat reads before Ran was added; inconclusive means other falling curves, or compound fluorescence or quenching; inactive means flat or rising ratio curve;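 further: potency means the concentration at half of the fitted maximal effect; % of control where 0% means no effect; nearly all actives have a fitted effect of over 45% in size; -100% = wells without RanGTP and RCC1; the record marks most hits as doubtful in a second field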
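Recombinant Rango FRET biosensor (EYFP–snurportin 1 IBB–cerulean CFP10) at 0.1 uM premixed with 0.25 uM importin beta in PBS, 1 mM DTT, 0.02% Tween-20, 0.1% BSA. Compound added 5 min; RanGTP-RCC1 (0.6 uM Ran, 2 mM GTP, 0.2 uM RCC1) then triggers release, read at 45 min.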
miR-21 reporter = raises the signal of a miR-21 reporter; AID 2288; 340,000 tested, under 10 active; Potency, µM (titrated, usually from 38.3 µM), without a hit: at the highest dose reporter change, positive = more light; HeLa miR-21 FLuc reporter, luciferase, 48 h; active = well fitted rising curve with a large enough effect; inconclusive = small, poorly fitted or top-dose-only effect; inactive = no such curve, though single readings can be large or run the other way;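 further: % of control where 0% means no effect; miR-21 action dims this reporter so a rising signal means less miR-21 action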
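HeLa cells endogenously expressing miR-21, stably carrying CMV-driven firefly luciferase with a downstream miR-21 binding site, 2000 cells/well. Titrations up to approximately 40 uM, 48 hours; luciferase luminescence read.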
* hit, by the source's call; ? = inconclusive; · = not tested or not shown; & = joins results of further samples. An excerpt. The share of hits here may be higher or lower than overall.

SMILES	GLA inh pH 4.5	Rango-impB inh	Rango dissoc inh	miR-21 reporter
CCN=C1SC(CC(=O)NCCc2ccc(OC)c(OC)c2)C(=O)N1CC (stereo not drawn)	1	-1.8%	6%	-1%
Cc1c(CC(=O)N2CCC(C(=O)O)CC2)c(=O)oc2cc3c(cc12)CCC1(CCCCC1)O3	·	0.3%	-11%	-20%
CCOC(=O)c1cnc(-n2nc(C)cc2C)nc1NC	-8	-3.6%	-6%	-15%
Cc1cccc2c3nc4ccccc4nc3n(CCCN3C(=O)c4ccccc4C3=O)c12	-2	?	-5%	-9%
CCN(CC)c1nc(N)c2c(N)nc(OC)cc2c1C#N	·	?	?	·
Cc1ccc(S(=O)(=O)Nc2cccc(C(=O)N3CCCC3)c2)cc1F	·	0.3%	7%	·
Cc1ccsc1CN1CCC(C(=O)NCc2ccccc2Cl)CC1	-4	-0.7%	1%	-4%
CCOCCCNC(=O)C(NC(=O)CNC(C)=O)c1ccc(Cl)cc1 (stereo not drawn)	9	1.3%	2%	-7%
CNC(=O)c1c(Cl)cnn1-c1ccccc1	2	0.9%	0%	-17%
O=C(O)CCCCCNC(=O)CSc1nnc(-c2ccco2)n1-c1ccccc1	·	-2.2%	5%	8%
Cc1ccccc1NC(=O)NCCCN1CCCC1	-1	-1.8%	0%	1%
CC1CC(C)CN(C(=O)C2CC(=O)N(c3ccc4c(c3)OCCO4)C2)C1 (stereo not drawn)	·	6.3%	-18%	·
CCN(CC)C(=O)CSc1nc(-c2ccccc2)ccc1C#N	-19	-0.5%	2%	-6%
Cn1c(C=O)c(C#Cc2ccccc2)c2ccccc21	·	?	?	·
COc1ccccc1NS(=O)(=O)c1cc(NC(=O)c2cc3ccccc3oc2=O)ccc1C	-4	-4.0%	18%	-8%
CCCC1=Nc2cc(C(=O)NCCCN3CCN(C)CC3)ccc2Sc2ccccc21	·	-3.1%	-21%	-24%
Cc1cc(C)n2cnnc2n1	3	-4.2%	-2%	-3%
Cc1noc(C)c1COC(=O)c1cc2c(C)nn(-c3ccc(F)cc3)c2s1	8	2.9%	-3%	-2%
O=C(NC(=S)Nc1ccc(NC(=O)c2ccccc2)cc1)c1ccc(F)cc1	·	-4.4%	-13%	-13%
Cc1ccc(NS(=O)(=O)c2cc(NC(=O)c3cc(=O)[nH]c(=O)[nH]3)ccc2Cl)c(C)c1	-1	-3.0%	12%	-9%
COc1cc(C(=O)COC(=O)Cc2cnc3sccn23)cc(OC)c1OC	1	-1.7%	10%	1%
CC(C)N=C(N)N=C(N)Nc1ccc(Cl)cc1	·	0.9%	-8%	·
O=S1(=O)C=C(Oc2ccc(F)cc2)c2ccccc21	9	-3.1%	18%	-17%
O=C(NCc1ccc2c(c1)OCO2)c1cc(Cl)ccc1Cl	·	-0.8%	0%	-13%
O=c1c2ccccc2nc(-c2ccoc2)n1CCc1ccccc1	-3	7.9%	0%	17%

(continued)
SMILES	GLA inh pH 4.5	Rango-impB inh	Rango dissoc inh	miR-21 reporter
COc1ccc(/C(C)=N/NC(=O)c2cc(-c3cccnc3)nc3ccccc23)cc1	1	0.5%	-1%	-9%
O=C(O)c1ccc(/C=N/N2CCN(C3c4ccccc4-c4ccccc43)CC2)cc1	2	-1.4%	-8%	-3%
CC(=O)N1CC(C)Sc2ccc(S(=O)(=O)NCc3ccccc3Cl)cc21 (stereo not drawn)	·	-5.8%	17%	9%
CSc1nc2c(c(=O)[nH]c(=O)n2C)n1C/C=C(\C)Cl	3	5.9%	16%	-11%
COc1cc2cc(CCOC(=O)N3CCCCC3)oc(=O)c2cc1OC	·	-5.0%	30%	·
COc1ccc(-c2csc(Nc3ccc(O)cc3)n2)cc1	-2	-3.1%	1%	-52%
CC1OC1c1ccc(-c2ccc(C3OC3C)cc2)cc1 (stereo not drawn)	·	0.1%	25%	·
Cc1cc(=O)oc(C)c1C(=O)NCCNC(=O)c1c(C)cc(=O)oc1C	4	-1.9%	-8%	1%
O=C(Nc1cccc(-c2nc3ncccc3o2)c1)c1sc2ccccc2c1Cl	-12	8.1%	13%	0%
Brc1cccc(OCCSc2ncccn2)c1	0	-0.1%	-8%	-43%
O=C(Nc1ccc(OCC(=O)N2CCOCC2)cc1)c1cccc(Cl)c1	·	0.0%	-3%	-19%
CC1=C(C(=O)Nc2ccccn2)C(c2ccccc2)n2ncnc2N1 (stereo not drawn)	12	0.3%	7%	-4%
Clc1ccc(-c2nnc(-c3ccc4ccccc4c3)o2)cc1	·	-0.7%	14%	·
Cc1ccc(S(=O)(=O)N2CCCC(C(=O)NCCc3ccc(S(N)(=O)=O)cc3)C2)cc1 (stereo not drawn)	·	-1.4%	2%	1%
CC1Cc2ccccc2N1C(=O)c1cc2cccnc2n(C)c1=O (stereo not drawn)	·	-1.9%	?	·
COC(=O)CSc1ncnc2c1cnn2-c1ccc(C)cc1C	-12	3.9%	1%	-17%
CC1CCCC(C)N1C(=O)COC(=O)c1cncc(Br)c1 (stereo not drawn)	·	4.0%	-2%	·
Cc1cc(C)cc(NC(=O)NCC2CCN(Cc3cc(C)ccc3C)CC2)c1	·	-0.2%	19%	-1%&-3%
COCCn1c(SCC(=O)N2CCCc3ccccc32)nc2ccccc2c1=O	-7	-0.1%	10%	-1%
COCC(COS(N)(=O)=O)C(C)C (stereo not drawn)	·	-1.8%	-7%	0%
CCOC(=O)c1cc2c(=O)[nH]c(C(Cl)(Cl)Cl)nc2o1	10	-0.3%	-11%	0%
COc1ccc([N+](=O)[O-])cc1CSc1ccccn1	-2	-0.8%	0%	-17%
COc1ccc(C(=O)Nc2nc3cc4c(cc3s2)OCCO4)c(OC)c1	15	0.0%	3%	-44%
CC1(C(=O)OCC(=O)NCCNC(=O)COC(=O)C2(C)CC2(Cl)Cl)CC1(Cl)Cl (stereo not drawn)	·	-0.9%	?	5%
CCOC(=O)c1nc(N)sc1C(=O)OCC	-1	-1.0%	-20%	0%

Following part:
SMILES	GLA inh pH 4.5	Rango-impB inh	Rango dissoc inh	miR-21 reporter
S=C(c1nc2ccccc2[nH]1)N1CCOCC1	-14	2.1%	1%	-6%
C=CCN1CC2CC3(COc4cc(C)cc(C)c4)C=CC2(O3)C1=O (stereo not drawn)	9	-3.9%	5%	-14%
CC(/C=C/c1ccc2c(c1)OCO2)=N\NC(=O)C(O)c1ccccc1 (stereo not drawn)	-5	0.4%	-17%	-10%
O=C(O)C1CCC(C(=O)O)SS1 (stereo not drawn)	·	3.3%	5%	·
COc1cc(Cl)cc(/C=C/c2ccc3ccccc3n2)c1OC(C)=O	-8	0.9%	15%	-80%
Cc1cc(C)c2c(CC(=O)NCCc3ccccc3)coc2c1	7	2.0%	5%	-4%
CS(=O)(=O)N1CCc2cc(-c3csc(NC(=O)Cc4ccccc4)n3)ccc21	6	-0.8%	-13%	?
CCc1c(N)nc(N)nc1Nc1ccc(C)c(C)c1	·	-3.0%	-3%	·
CCSc1nnc(NC(=O)c2ccco2)s1	1	0.5%	0%	-38%
Cc1nnsc1Sc1ccccn1	-10	-0.7%	4%	-9%
COC(=O)c1nn(C)c(=O)[nH]c1=O	·	3.6%	3%	·
CSc1nc(O)cc(=O)n1-c1ccc(F)cc1	5	0.9%	0%	1%
CC(=O)Nc1cccc(NC(=O)CSc2ncc(C(=O)Nc3ccc(F)cc3)c(=O)n2C)c1	·	-7.5%	-17%	·
O=C(Nc1cccc(C(F)(F)F)c1)N(Cc1ccc(Cl)cc1)CC(O)C(F)(F)F (stereo not drawn)	-11	-1.0%	-9%	26%
CCNc1ncnc2c1cnn2C1CCCO1 (stereo not drawn)	·	-2.3%	-3%	·
COc1ccccc1N1CCN(Cc2cc(OC)c3c(c2)OCO3)CC1	·	0.4%	-15%	1%
Nc1ccc(-c2nc3ccc(N)cc3[nH]2)cc1	?	-1.8%	-12%	15%
Cc1cc(C(=O)N/N=C/C=C/c2ccccc2[N+](=O)[O-])c(C)o1	-4	0.1%	8%	-1%
CN1CCN(C(=O)c2cccc(COc3cc(Cl)ccc3Cl)c2)CC1	2	2.4%	4%	-69%
CCOc1ccc(NC(=O)NNC(=O)C(C)Oc2ccccc2OC)cc1 (stereo not drawn)	·	-0.2%	-10%	-5%
COC(=O)c1cccc(NC(=O)CSc2nnnn2C)c1	4	2.5%	6%	-13%
Cc1cc(Cl)ccc1OCC(=O)Nc1cccc(S(=O)(=O)N2CCCC2)c1	·	2.6%	15%	·
C/C(=N\NC(=O)c1csc(C)c1C)c1ccc(C)s1	-3	3.8%	-8%	-82%
O=C(CCl)Nc1ccc(Oc2cnc3ccccc3n2)cc1	1	0.0%	9%	?
CCOc1ccc(S(=O)(=O)N2CCCC(C(=O)NCc3cccnc3)C2)cc1 (stereo not drawn)	·	-0.5%	-5%	2%

Arranged by value in Rango dissoc inh (smallest number first): 4 of the compounds above.
Structure | GLA inh pH 4.5 | Rango-impB inh | Rango dissoc inh | miR-21 reporter
CC(/C=C/c1ccc2c(c1)OCO2)=N\NC(=O)C(O)c1ccccc1 (stereo not drawn) | -5 | 0.4% | -17% | -10%
O=C(Nc1cccc(C(F)(F)F)c1)N(Cc1ccc(Cl)cc1)CC(O)C(F)(F)F (stereo not drawn) | -11 | -1.0% | -9% | 26%
CN1CCN(C(=O)c2cccc(COc3cc(Cl)ccc3Cl)c2)CC1 | 2 | 2.4% | 4% | -69%
O=C(O)C1CCC(C(=O)O)SS1 (stereo not drawn) | · | 3.3% | 5% | ·

Remaining list, next part.
SMILES	GLA inh pH 4.5	Rango-impB inh	Rango dissoc inh	miR-21 reporter
CN(Cc1cccs1)C(=O)COc1cccc(-n2cnnn2)c1	-4	1.9%	3%	-1%
CC(=O)Nc1sc(C)c(C)c1C(=O)OCC(=O)Nc1cccc(C)c1	·	1.5%	-7%	·
Fc1ccc(-c2nnc(NC3=NCCCCC3)o2)cc1	-7	6.4%	-7%	?
CC1(C)OC(=O)C(=NNc2ccc(C(=O)O)cc2)C(=O)O1	-10	-3.8%	7%	-9%
CN(Cc1nc2ccccc2c(=O)[nH]1)C(=O)c1ccccc1OCc1ccc(Cl)cc1	·	0.4%	0%	·
O=C(c1cc2ccccc2oc1=O)N1CCCCCCC1	·	6.8%	-2%	-7%
CC(C)OCCCNC(=O)COc1ccc2oc3c(c2c1)CCCC3	·	-0.5%	-11%	-6%
Cc1ccc(NCC(=O)Nc2cccc(S(=O)(=O)N(C)C)c2)c(Cl)c1	-7	-1.2%	-12%	-16%
O=c1ccc(S(=O)(=O)N2CCC(Cc3ccccc3)CC2)c[nH]1	2	1.8%	0%	2%
O=C(Nc1ccccc1Cl)c1cccc(COc2cc(Cl)ccc2Cl)c1	-1	-1.6%	14%	-48%
CCN=C1SC(CC(=O)NC(C)C)C(=O)N1CC (stereo not drawn)	4	0.7%	-15%	-2%
O=C(c1cc(-c2cccnc2)nc2ccccc12)N1CCN(S(=O)(=O)c2cccs2)CC1	·	0.0%	13%	·
Cc1ccc(C)c(SCC(=O)N(C)CC(=O)Nc2ccc(N3CCOCC3)cc2)c1	·	-0.3%	0%	·
CC1(C)C2CCC1(C)C(OC(=O)C[n+]1ccccc1)C2 (stereo not drawn)	-2	-2.1%	20%	1%
Cc1ccnn1CC(=O)N/N=C/c1cn[nH]c1-c1ccc(F)cc1	5	0.5%	6%	3%
CCOC(=O)c1c(NC(=O)c2nn(CC)cc2Br)c(C#N)cn1-c1ccccc1	-10	-1.3%	1%	4%
COc1ccc2nc(NC3=NC(c4ccccc4)CC(=O)N3)nc(C)c2c1 (stereo not drawn)	-16	-3.6%	-11%	-18%
CN(NS(C)(=O)=O)c1ncc(C(F)(F)F)cc1Cl	0	-3.6%	0%	2%
Cc1ccc(C(=O)CSc2nnc(-c3ccco3)n2C)cc1	9	-1.6%	2%	-18%
Cc1ccc(C2=NN(C(=O)COc3ncnc4ccccc34)C(c3ccco3)C2)cc1 (stereo not drawn)	1	0.1%	-2%	-11%
COc1ccc2[nH]c(=O)c(CN(C(=O)c3ccncc3)C(C)(C)C)cc2c1	1	-2.3%	-2%	-1%
O=C(COc1ccc(Br)cc1Br)NC1CCS(=O)(=O)C1 (stereo not drawn)	·	-0.2%	-2%	·
